TexasRed fluor = Texas Red fluorescence interference in TRb-SRC2 counter-screen. 280,000 compounds, 0.29% hits. AID 1479. TRb/SRC2 Texas Red total fluorescence interference. Potency, µM (top dose mostly 106 µM), inactives show at the top dose fluorescence change, negative = quenching; active means well fitted curve in either direction with a large enough effect; inconclusive means small, poorly fitted or top-dose-only effect; further: on the % scale 0 is the no-effect control and ±100 the full control effect
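Human TRb ligand-binding domain at 0.6 uM with 20 nM Texas Red SRC2 peptide in Tris buffer containing 1 uM T3 and 5% DMSO, incubated with compound 5 h at ambient temperature. Total fluorescence (555/632 nm) calculated as parallel + 2 × perpendicular.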
RECQ1 helicase = inhibitors of human RECQ1 DNA helicase; RECQ1 DNA unwinding, red fluorescence kinetic read; Potency, µM (top dose mostly 57.3 µM), without a hit: top-dose activity, negative = inhibition, hits mostly inhibitors; 240,000 compounds, 0.54% hits; P46063; AID 2549;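 further: plate controls were vehicle for no effect and no enzyme for full effect; nearly all actives have a fitted effect of over 30% in size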
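50 nM RECQ1T1 preincubated 15 min with compound in Tris pH 8.0 buffer with MgCl2, DTT, Tween-20 and 2.5 ug/ml poly(dI-dC); started with 200 nM TAMRA/BHQ-2 forked duplex and 2 mM ATP. Unwinding read as fluorescence (525/598 nm), two reads 2 h apart.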
GoLoco inh red = blocks human Gai1 binding to RGS12 GoLoco peptide, red readout | Gai1:RGS12 GoLoco peptide FP, rhodamine, 10 min | Potency, µM (highest dose often 61.6 µM), inactives show at the top dose activity, negative = inhibition, hits mostly inhibitors | 230,000 compounds, 0.44% hits | AID 880; active means well fitted inhibition curve with a large enough effect, not every such curve was filed as active; inactive means no such curve, though single readings can be large or run the other way; further: on the % scale 0 is the no-effect control and ±100 the full control effect; nearly all actives have a fitted effect of over 30% in size; many of its hits are not listed in these tables
Target sequence (P63096 whole entry, looked up): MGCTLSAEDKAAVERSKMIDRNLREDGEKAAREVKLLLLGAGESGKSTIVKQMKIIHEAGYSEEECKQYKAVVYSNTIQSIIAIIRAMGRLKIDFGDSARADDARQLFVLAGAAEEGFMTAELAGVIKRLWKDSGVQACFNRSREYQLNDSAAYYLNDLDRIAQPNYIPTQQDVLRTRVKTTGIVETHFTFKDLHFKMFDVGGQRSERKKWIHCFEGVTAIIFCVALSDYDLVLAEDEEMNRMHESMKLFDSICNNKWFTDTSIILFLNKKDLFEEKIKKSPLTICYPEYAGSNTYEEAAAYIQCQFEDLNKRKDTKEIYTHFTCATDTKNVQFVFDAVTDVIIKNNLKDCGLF
SMN2 splice up = enhancers of SMN2 splice variant expression; 210,000 compounds, 2.8% hits; HEK293 SMN2-luciferase splicing reporter, luminescence, 30-36 h; Potency, µM (series often up to 46.1 µM), for the others: at the highest dose activity change, positive = activation, usual class: activators; AID 1458; further: % of control where 0% means no effect; nearly all actives have a fitted effect of over 55% in size
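qHTS luciferase splicing reporter: luminescence rises when SMN2 exon 7 is included in transfected HEK293 cells. Compound exposure lasted 30-36 h at 37C, with 4.5 mM final sodium butyrate as control, followed by a ONE-Glo read.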
LMNA splice mod = changes lamin A minigene splicing in HeLa cells; 200,000 compounds, 0.01% hits; HeLa LMNA splicing GFP/RFP minigene ratio, 48 h; AID 1487; Potency, µM (titrated, usually from 46.1 µM), inactives show top-dose ratio change, negative = inhibition, hits mostly inhibitors; active means well fitted inhibition curve with a large enough effect in the signal ratio, with a control signal flat, not every such curve was filed as active; inconclusive means small, poorly fitted or top-dose-only effect, or effect the other way, or a change in a side signal; the % refers to the signal ratio; further: on the % scale 0 is the no-effect control and ±100 the full control effect
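S3 HeLa stable clones carrying a lamin A-EGFP splicing minigene plus DsRed2 were seeded at 600 cells/well in Opti-MEM with 2% FBS, pin-dosed and incubated 48 h at 37°C. Acumen cytometry (488 nm) gave the GFP/RFP total-intensity ratio.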
TRb SRC2 PPI = TRbeta-SRC2 interaction inhibition; P10828; TRbeta-SRC2 peptide binding, fluorescence polarization; receptor liganded with 1 µM T3; Potency, µM (doses to about 106 µM), for inactives: top-dose activity change, negative = inhibition, usual class: inhibitors; 280,000 compounds, 0.065% hits; AID 1469;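 further: plate controls were bound peptide for no effect and peptide without receptor for full effect; nearly all actives have a fitted effect of over 50% in size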
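Quantitative HTS by FP: 0.6 uM TRb LBD, 20 nM labeled SRC2 20-mer, 1 uM T3, 5% DMSO; 5 hr ambient incubation; % activity per concentration and potencies from concentration series.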
ALDH1A1 block = inhibitors of human aldehyde dehydrogenase 1A1 | P00352 | Potency, µM (series often up to 75.3 µM), without a hit: at the top dose activity, negative = inhibition, usual class: inhibitors | AID 1030 | 220,000 compounds, 7.3% hits | Purified ALDH1A1, NADH fluorescence, propionaldehyde substrate; active means well fitted inhibition curve with a large enough effect, not every such curve was filed as active; inconclusive means small, poorly fitted or top-dose-only effect, or another doubt; inactive means no such curve, though single readings can be large or run the other way;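 further: plate controls were no enzyme wells and a reference inhibitor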
Target sequence (P00352 whole entry, looked up): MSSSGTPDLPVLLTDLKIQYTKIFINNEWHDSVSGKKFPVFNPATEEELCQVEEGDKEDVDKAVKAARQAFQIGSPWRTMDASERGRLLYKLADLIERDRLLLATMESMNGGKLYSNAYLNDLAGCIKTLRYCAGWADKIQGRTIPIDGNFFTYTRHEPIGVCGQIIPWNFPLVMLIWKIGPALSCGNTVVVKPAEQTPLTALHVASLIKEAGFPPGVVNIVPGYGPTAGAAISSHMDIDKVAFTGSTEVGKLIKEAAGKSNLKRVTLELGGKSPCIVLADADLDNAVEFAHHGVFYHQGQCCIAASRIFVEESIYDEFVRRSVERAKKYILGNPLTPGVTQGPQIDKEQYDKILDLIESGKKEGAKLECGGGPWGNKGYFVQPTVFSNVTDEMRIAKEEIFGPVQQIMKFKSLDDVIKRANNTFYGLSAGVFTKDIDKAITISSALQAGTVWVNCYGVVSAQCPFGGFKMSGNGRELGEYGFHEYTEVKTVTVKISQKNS
An asterisk follows results filed as active; i = inactive; ? = inconclusive; / = no result given; [ ] = remark or other dose. Unless noted, the call rests on the fitted dose curve; in most records, active means well fitted curve in the direction sought with a large enough effect; inconclusive means small, poorly fitted or top-dose-only effect, or another doubt; inactive means no such curve, though single readings can be large; an effect the other way counts as inactive or inconclusive. Potency means the concentration at half of the fitted maximal effect. Some of the compounds tested; count on the stated rates, not on these rows.

SMILES	TexasRed fluor	RECQ1 helicase	GoLoco inh red	SMN2 splice up	LMNA splice mod	TRb SRC2 PPI	ALDH1A1 block
Cc1ccccc1OCC(O)Cn1c2ccccc2c2ccccc21 (configuration not stated)	-3.0%	-14.4%	-11.4%	-2.9%	?	5.4%	-1.7%
CC(=O)Nc1nc(=S)n(-c2ccccc2)[nH]1	-0.8%	-5.0%	/	/	-4.9%	-22.9%	?
Nc1n[nH]c(=S)n1-c1ccc(Cl)cc1	-2.9%	-3.7%	-7.2%	/	/	1.0%	1.58µM*
COc1ccc(CN2CCN(c3ccccn3)CC2)cc1OCc1ccccc1	0.2%	i	-3.8%	-7.0%	?	0.8%	?
COc1ccc(CN2CCN(S(=O)(=O)c3ccc(C)cc3)CC2)cc1Br	2.7%	-9.1%	-12.3%	3.7%	-15.4%	-12.0%	20µM*
CCOC(=O)C1=C(O)C(=O)N(Cc2ccccc2)C1	-4.1%	-14.3%	-2.1%	/	/	2.2%	-9.9%
COc1ccc(NC(=O)c2ccc(-c3nn(C)c(=O)c4ccccc34)cc2)cc1	-2.7%	-9.1%	0.9%	/	?	4.4%	4.8%
CCOC(=O)c1nn(-c2ccc(Cl)cc2Cl)c(=N)c(C#N)c1C	20.1%	i	139.0%[activator]	/	/	22.2%	/
Oc1ccc2ccccc2c1C=NC12CN3CCN(CN(C3)C1)C2	-24.0%	-0.1%	-13.8%	-13.7%	15.9%	?	?
CC(C(=O)N1CCCc2ccccc21)N1CCN(c2ccccn2)CC1 (configuration not stated)	-2.0%	-4.3%	3.8%	12.0%	-6.3%[46 µM]	1.8%	?
COc1cccc(NC(=O)CN(C)CC(=O)Nc2ccc(C)cc2Cl)c1	0.3%	24.1%	-17.3%	-14.5%	-17.1%[46 µM]	-1.6%	11.2µM*
COc1cccc(OCC(=O)Nc2ccccc2C(N)=O)c1	-0.3%	?	9.7%	11.2µM*	-1.7%	-4.7%	6.2%
COc1ccc(C(C#N)Nc2ccccc2C)cc1 (configuration not stated)	-2.5%	4.1%	7.3%	-10.8%	3.2%[0.0737 µM]	-17.1%	?
C=CCc1cc(C)ccc1OCC(O)CN1CCN(c2ccccc2)CC1 (configuration not stated)	1.3%	-8.7%	-10.3%	16.4%	-2.4%	-14.8%	?
CC(C)=NNc1nc(-c2ccc(N3C(=O)CCC3=O)cc2)cs1	-1.4%	25.3%	7.6%	/	/	-6.5%	11.2µM*
O=c1[nH]c(CN2CCCC2)nc2sc3c(c12)CCC3	-3.2%	-13.5%	7.8%	3.7%	-8.7%[46 µM]	1.4%	-1.6%
CC(NC(=O)Cc1cccs1)c1ccccc1 (configuration not stated)	0.4%	i	2.7%	/	9.1%[46 µM]	6.8%	2.7%
COc1ccc(-c2nnc(-c3ccc(OCC(C)C)cc3)o2)cc1	-3.5%	-12.7%	0.7%	-14.7%	6.8%	5.1%	?
CCN1CCN(CC(=O)Nc2cc(C)on2)CC1	-0.4%	i	6.0%	4.3%	/	0.1%	?
C=CCOc1c(Br)cc(/C=C(\C#N)C(N)=O)cc1OC	-3.3%	-15.5%	7.1%	/	-16.0%[46 µM]	-19.0%	3.8%
COC(=O)N/N=C\C=C\c1ccc2c(c1)OCO2	-1.7%	19.4%	3.9%	6.5%	?	-2.7%	11.4%
Cc1ccc(OCCCCN2CCC(C)CC2)c(Br)c1	-2.6%[53 µM]	-7.9%	-8.9%	3.3%	-8.8%	-1.1%[53 µM]	?
CCCCNC(C(=O)Nc1ccc(Cl)c([N+](=O)[O-])c1)c1ccccc1 (configuration not stated)	-1.4%	-2.9%	-2.5%	1.1%	?	2.3%	5.01µM*
COC(=O)c1ccc(OCCN2CCCCCC2)cc1	-2.3%	16.9%	-8.5%	16.7%	/	-1.4%	-3.9%
CCN(CC)Cc1oc(CO)cc(=O)c1O	-1.4%	0.8%	4.1%	-3.8%	/	-0.3%	-8.9%
CC1(OC(=O)C2CCCC2)C(=O)C=C2C=C(c3ccsc3)N(C(CO)CO)C=C2C1=O (configuration not stated)	-0.7%[11.2 µM]	-14.3%[11.5 µM]	-4.7%[14.2 µM]	-0.1%[9.22 µM]	-5.0%[9.22 µM]	3.9%[11.2 µM]	6.3%[13.5 µM]
O=C(C1CCN(Cc2ccc(F)cc2)CC1)N(CCc1ccccc1)Cc1ccccc1	-1.7%	-4.9%	-6.6%	-20.9%	?	-1.1%	-15.8%
Cc1ccc(N/C=C/C(=O)C(C)(C)C)c(O)c1	-0.8%	-20.7%	14.1%	4.0%	?	-17.3%	?
COc1ccc(C(=O)N2CCN(Cc3cc(OC)c(O)c(OC)c3)CC2)cc1OC	-9.3%	0.8%	/	/	-7.1%	-6.2%	22.4µM*
COc1ccc(NC(=O)CN2CCC(C)CC2)cc1	1.4%	0.1%	3.8%	?	13.1%	1.7%	-6.6%
CN(C)CCCCOc1ccc(Br)cc1Cl	-0.8%	i	-12.1%	-19.7%	?	-11.0%	?
CCOC(=O)c1sc(NNC(=O)c2ccc(F)cc2)nc1C	-3.2%	-6.2%	-2.0%	/	/	-2.8%	/
CC1(OC(=O)C2CCCC2)C(=O)C=C2C=C(c3ccsc3)N(CCc3ccccn3)C=C2C1=O (configuration not stated)	1.5%[11.2 µM]	2.8%[11.5 µM]	-13.8%[14.2 µM]	2.0%[9.22 µM]	?	1.1%[11.2 µM]	?
Cc1ccc(C=NCc2ccncc2)c(O)c1	1.4%	-3.2%	2.0%	3.1%	-7.0%	-23.2%	-6.2%
O=c1c2c(nc3nc(NCc4ccc(Cl)cc4)[nH]n13)CCC2	4.0%	-8.6%	2.3%	9.8%	12.2%[9.22 µM]	6.8%	10.6%
Cc1ccc(OCCCN2CCOCC2)c([N+](=O)[O-])c1	-4.6%	0.1%	-12.3%	?	5.6%	-6.1%	?
CN(C)c1nc(-c2cccnc2)nc(-c2ccc(Cl)cc2)c1C#N	0.8%	-0.5%	-2.9%	?	/	-0.7%	?
Cc1no[n+]([O-])c1COc1cccc(/C=N/Nc2nncn2N)c1	-1.0%	-11.6%	4.0%	/	/	-1.2%	?
COc1ccc(CN2CCNC(=O)C2CC(=O)N(C)Cc2ccccn2)cc1OC (configuration not stated)	9.7%	i	7.0%	/	/	-8.2%	?
O=C(COc1ccc(-c2ccccc2)cc1)N1CCN(C(=O)c2cccnc2)CC1	0.6%	i	-0.6%	-17.9%	17.2%	3.0%	-2.5%
O=C(Nc1ccccc1)[C@@H]1[C@@H]2C(=O)N(c3ccc(F)cc3)C(=O)[C@@H]2[C@H]2C=CC=NN21	8.3%	i	24.2%	/	/	9.8%	?
CN(C)c1cccc2cccc(N(C)C)c12	-1.7%	3.3%	0.4%	/	/	-4.6%	8.5%
CC(=O)Nc1nc(C)c(Oc2ccc(Cl)cc2Cl)c(=O)[nH]1	-0.3%	i	/	/	-5.6%	2.4%	5.4%
Cc1cccc(NC(=S)NNC(=O)c2ccc(O)cc2O)c1C	-1.9%	-1.6%	20.4%	-47.7%[inhibitor]	?	3.4%	-13.1%
Cn1c(-c2cccc([N+](=O)[O-])c2)cnc1NCc1ccc(C#N)cc1	-1.6%	i	3.1%	-25.3%	-16.6%[46 µM]	13.5%	?
CCOC(=O)CSc1ccc2nnc(-c3ccccc3)n2n1	0.7%	-10.0%	-2.7%	-7.6%	-6.8%	-0.7%	-11.3%
Cc1ccc2nc(NC3=NC(CC(=O)O)C(=O)N3)nc(C)c2c1 (configuration not stated)	-1.2%	i	-3.8%	?	-11.4%[46 µM]	8.3%	-13.5%
O=C(c1ccccc1)N1CCN(CC2CC=CCC2)CC1 (configuration not stated)	2.0%	-2.1%	-6.4%	26.7%	4.2%	-0.5%	?
O=C(COc1ccc(-c2ccccc2)cc1)N1CCN(C(=O)c2cccs2)CC1	-1.1%	20.1%	20.4%	/	-1.6%[46 µM]	-3.1%	?
S=c1nc(C2COc3ccccc3O2)[nH][nH]1 (configuration not stated)	-11.4%	i	25.0%	0.1%	/	0.1%	?
CNCCCOc1cc(C)cc(C)c1C	-1.7%	-16.9%	-10.5%	/	/	-0.7%	?
O=C(CNCC1CCCCC1)Nc1ccc(OC(F)(F)F)cc1	-1.3%	-5.5%	8.8%	18.9%	-1.8%[9.22 µM]	1.0%	?
CC(C)(C)NCCOCCOc1ccc(Cl)cc1C(C)(C)C	-2.9%	i	10.0%	-5.8%	-9.1%[46 µM]	0.7%	-13.8%
O=C(O)CC(Sc1n[nH]c(=S)s1)C(=O)O (configuration not stated)	-6.8%	1.3%	-16.4%	/	12.2%[46 µM]	-7.6%	12.6µM*
COc1ccc(-c2nnc(-c3ccc(N(C)C)cc3)o2)cc1	1.4%	i	2.4%	25.0%	-7.3%	2.1%	?
COc1ccccc1N=Cc1c(C)c(C#N)c2[nH]c3ccccc3n2c1=O	0.6%	-8.3%	103.5%[activator]	/	/	-0.4%	-10.3%
COCCCNC(=S)NNC(=O)c1csc(C)n1	-4.7%	-4.9%	-2.0%	/	/	-2.5%	/
COc1cc(OC)cc(C(=O)NC(=S)NNC(=O)c2cnccn2)c1	-1.0%	-6.3%	-1.4%	-92.1%[inhibitor]	?	-0.4%	39.8µM*
N#C/C(=C\c1cccc([N+](=O)[O-])c1)C(=O)NCc1ccc(Cl)cc1	0.6%	-5.5%	1.0%	5.2%	?	-1.5%	?
Cc1cc(C(=O)CSc2nnc(-c3cccnc3)n2-c2ccccc2F)c(C)n1CC1CCCO1 (configuration not stated)	6.9%	35.5µM*	17.6%	-41.1%[inhibitor]	4.2%	-2.7%	?
Carrying on.
SMILES	TexasRed fluor	RECQ1 helicase	GoLoco inh red	SMN2 splice up	LMNA splice mod	TRb SRC2 PPI	ALDH1A1 block
CCN(CC)S(=O)(=O)c1ccc(C)c(C(=O)Oc2cccc(-c3cnc4ccccc4n3)c2)c1	-4.7%	-1.1%	-0.7%	17.8µM*	1.2%	1.4%	0.6%
CCOC(=O)C1CCN(C(=O)c2ccc(N(C)S(C)(=O)=O)cc2)CC1	-2.0%	-4.3%	-2.9%	-15.1%	9.5%	-2.2%	3.1%
NC(=O)[C@H]1CC2(CC(c3cccc(NC(=O)[C@H]4CCC(=O)N4)c3)=NO2)CN1C(=O)c1ccccc1 (some centres not stated)	-0.1%	i	1.4%	/	/	3.9%	/
CN(C)CCOc1ccccc1-c1ccccc1	-0.4%	8.2%	-1.0%	?	-1.7%	-5.6%	?

Screening results as filed in PubChem BioAssay.
